High-throughput results (PubChem)
DUX4 inh = DUX4-mediated transcription inhibition; 293T-iDUX4 ZSCAN4-Gaussia luciferase reporter, 24 h; stronger effect = lower value; activity change, negative = inhibition, % (test concentration not listed); hit rate 0.8% among 37,000; AID 1224904;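 active means -10% or lower and over 25 points stronger than a control reporter; inconclusive means -10% or lower with a smaller gap; inactive means above -10%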;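 further: 0% = median of neutral control wells and -100% = median of positive control wells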
DUX4 inh difference = also measured in DUX4 inh; calls as there; Gaussia minus Italica difference, %; measured here: selective DUX4 reporter inhibition;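 worked out from the two reporters; negative = selective loss of the DUX4 reporter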
DUX4 inh control = second read-out of DUX4 inh, no call of its own (marks repeat the call); activity change, negative = inhibition, %; measured here: Italica tet-on control reporter;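 0 = neutral control and -100 = positive control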
* = called active by the depositor; ? = inconclusive; nt = no result given; & = joins results of further samples. These rows are one share of the data, so the mix of outcomes need not match the whole.

The first seven compounds, ahead of the listing:
DUX4 inh control	DUX4 inh	DUX4 inh difference	SMILES
-1.3	-4	-3	CC(C)[C@H]1CC=CC[C@@H](C)Oc2ccccc2C(=O)N(C)[C@H](C(C)C)C(=O)N1 (mixture of isomers)
-2.1	-8	-6	N#C[C@H]1[C@@H](c2ccccc2C2=CCCC2)[C@H](CO)N1C(=O)C1CCCC1
-0.8	2	3	O=C(C[C@H]1CC[C@H]2NC[C@@H](O)COC[C@@H]2O1)NC1Cc2ccccc2C1
2.0	2	0	COc1ccc2c3c(n(C)c2c1)[C@H](CO)N(Cc1ccccc1F)CC31CN(CC2CC2)C1
0.1	-7	-7	N#C[C@@H]1[C@H](c2ccccc2C2=CCCC2)[C@@H](CO)N1C(=O)c1cccc(F)c1
8.2	12	4	CCCNC(=O)N1CCC2(CC1)CN(C(C)=O)[C@H](CO)c1c2c2ccc(OC)cc2n1C
6.7	-4	-11	O=C(NC[C@H]1[C@H](c2ccccc2)[C@H](CO)N1CC1CCCC1)c1ccccc1

The listing, previewed entries included:
DUX4 inh control	DUX4 inh	DUX4 inh difference	SMILES
-1.3	-4	-3	CC(C)[C@H]1CC=CC[C@@H](C)Oc2ccccc2C(=O)N(C)[C@H](C(C)C)C(=O)N1 (mixture of isomers)
-2.1	-8	-6	N#C[C@H]1[C@@H](c2ccccc2C2=CCCC2)[C@H](CO)N1C(=O)C1CCCC1
-0.8	2	3	O=C(C[C@H]1CC[C@H]2NC[C@@H](O)COC[C@@H]2O1)NC1Cc2ccccc2C1
2.0	2	0	COc1ccc2c3c(n(C)c2c1)[C@H](CO)N(Cc1ccccc1F)CC31CN(CC2CC2)C1
0.1	-7	-7	N#C[C@@H]1[C@H](c2ccccc2C2=CCCC2)[C@@H](CO)N1C(=O)c1cccc(F)c1
8.2	12	4	CCCNC(=O)N1CCC2(CC1)CN(C(C)=O)[C@H](CO)c1c2c2ccc(OC)cc2n1C
6.7	-4	-11	O=C(NC[C@H]1[C@H](c2ccccc2)[C@H](CO)N1CC1CCCC1)c1ccccc1
-3.2	-2	1	O=C([C@H]1[C@H](CO)[C@H]2Cn3c(ccc(C4=CCCC4)c3=O)[C@@H]1N2Cc1nccs1)N1CCCCC1
nt	?	nt	COc1cccc(-c2ccc3c(c2)[C@H]2[C@H](CCN2C(=O)c2ccc(F)cc2)[C@H](CO)N3)c1
-5.4	4	9	CC=Cc1ccc2n(c1=O)C[C@H]1[C@H](CO)[C@@H](C(=O)N(C)C)N(CCC(F)(F)F)[C@@H]21 (mixture of isomers)
2.8	-2	-4	CO[C@H]1CN(C)C(=O)c2cc(NC(C)=O)ccc2OC[C@@H](C)N(C(=O)C2CC2)C[C@@H]1C
1.3	15	14	CN(C)CC(=O)N1CC2(C1)[C@@H](c1ccccc1)[C@@H](CO)N2Cc1cc(F)ccc1F
-0.6	6	7	C[C@H](CO)N1C[C@H](C)[C@@H](CN(C)S(=O)(=O)c2cn(C)cn2)OCc2cnnn2CCCC1=O
1.5	-5	-7	C[C@H]1CN([C@@H](C)CO)C(=O)c2cc(NC(=O)c3ccncc3)ccc2O[C@@H]1CN(C)Cc1ccc(Oc2ccccc2)cc1
2.4	4	1	Cc1cccc(S(=O)(=O)N2C[C@H]3[C@@H](c4ccccc42)[C@@H](CO)N3Cc2cccnc2)c1
2.2	-1	-3	CC(C)C(=O)Nc1ccc2c(c1)C(=O)N(C)[C@@H]1CC[C@@H](CC(=O)O)O[C@H]1CO2
nt	?	nt	Cn1cnc(S(=O)(=O)N2CCCCN3[C@@H](CO)[C@@H](c4ccc(C#CC5CCCC5)cc4)[C@@H]3C2)c1
0.7	-1	-2	Cc1ccc(S(=O)(=O)Nc2ccc3c(c2)CC(=O)N([C@@H](C)CO)C[C@@H](C)[C@@H](CN(C)Cc2ccc(Cl)c(Cl)c2)O3)cc1
3.3	-1	-5	CCC(=O)N1[C@H](CO)[C@@H](c2ccc(-c3cccnc3)cc2)[C@@H]1CN(C)C(C)=O
-3.5	-3	0	Cc1noc(C)c1NC(=O)Nc1ccc2c(c1)C(=O)N(C)[C@H]1CC[C@@H](CC(=O)N[C@H]3CCN(Cc4ccccc4)C3)O[C@H]1CO2
3.9	0	-4	O=C(C[C@H]1CC[C@H](NS(=O)(=O)c2ccc(F)cc2)[C@@H](CO)O1)NCCc1ccncc1
3.4	10	7	CC=Cc1ccc2n(c1=O)C[C@@H]1[C@@H](CO)[C@H](C(=O)NCc3ccccc3Cl)N(S(C)(=O)=O)[C@H]21 (mixture of isomers)
8.0	0	-8	O=C(C[C@@H]1CC[C@@H]2[C@H](COC[C@H](O)CN2Cc2cccc(C(F)(F)F)c2)O1)NCc1ccncc1
0.4	3	3	Cc1ccc(S(=O)(=O)Nc2ccc3c(c2)C(=O)N([C@H](C)CO)C[C@H](C)[C@H](CN(C)S(=O)(=O)c2cccs2)OCCCC[C@H](C)O3)cc1
-3.9	2	6	C[C@@H]1CN([C@H](C)CO)C(=O)c2cccc(NC(=O)c3cnccn3)c2O[C@H]1CN(C)S(=O)(=O)c1cn(C)cn1
-4.7	18	22	CN(C)CC#Cc1ccc([C@H]2[C@H](CO)N3CCCCN(CC4CCOCC4)C[C@@H]23)cc1
0.0	-1	-1	CC(C)CC#Cc1ccc2c(c1)O[C@@H](CN(C)C(=O)c1ccccc1F)[C@@H](C)CN([C@H](C)CO)S2(=O)=O
2.8	5	2	C[C@@H]1CN([C@H](C)CO)C(=O)CCCn2nncc2CO[C@H]1CN(C)C(=O)CCCN(C)C
2.8	11	9	O=C(CN1CCOCC1)N1CC[C@@H]2[C@H]1c1cc(Br)ccc1N[C@@H]2CO
2.8	6	3	Cc1noc(C)c1S(=O)(=O)N(C)C[C@H]1OCCCC[C@@H](C)Oc2ccc(NS(=O)(=O)c3cn(C)cn3)cc2C(=O)N([C@@H](C)CO)C[C@H]1C
2.4	7	4	O=C(C[C@@H]1C=C[C@@H](NC(=O)CCN2CCCCC2)[C@@H](CO)O1)Nc1nccs1
0.8	9	8	O=C(c1ccncc1)N1CC2(C1)[C@@H](c1ccccc1)[C@H](CO)N2C(=O)c1ccncc1
2.0	3	1	CCS(=O)(=O)N1CC(=O)N2[C@H](CO)[C@H](c3ccc(-c4ccc(F)cc4)cc3)[C@@H]2C1
nt	?	nt	COc1ccc(-c2ccc3c(c2)[C@H]2[C@H](CCN2C(=O)NC2CCCCC2)[C@H](CO)N3C)cc1
-2.3	-2	1	Cc1noc(C)c1NC(=O)Nc1ccc2c(c1)C(=O)N(C)[C@H]1CC[C@H](CC(=O)N[C@@H]3CCN(Cc4ccccc4)C3)O[C@H]1CO2
5.7	4	-2	CN(C)CC#Cc1ccc([C@@H]2[C@@H](CO)N3C(=O)CN(C(=O)c4ccc(F)cc4)C[C@@H]23)cc1
1.1	5	4	C[C@H](CO)N1C[C@H](C)[C@H](CN(C)C(=O)Nc2ccccc2F)OCc2cnnn2CCCC1=O
3.5	0	-3	CS(=O)(=O)Nc1ccc2c(c1)[C@H]1C[C@H](CC(=O)NCc3cccc(F)c3)O[C@H](CO)[C@H]1O2
4.7	11	7	COc1cccc(S(=O)(=O)N(C)C[C@H]2OCc3ccccc3-c3ccccc3C(=O)N([C@H](C)CO)C[C@H]2C)c1
-2.3	-2	0	CCc1csc(N2[C@@H](C#N)[C@@H](c3ccc(-c4cccc(F)c4)cc3)[C@@H]2CO)n1
-2.0	-3	-1	COCC#Cc1ccc([C@H]2[C@@H](CO)N3CCCCN(S(=O)(=O)c4ccccc4F)C[C@H]23)cc1
-0.6	-8	-7	O=C(C[C@H]1C[C@H]2c3cc(NC(=O)Cc4ccncc4)ccc3O[C@H]2[C@H](CO)O1)NCc1ccccn1
-2.3	-1	1	CO[C@H]1CN(C)C(=O)c2cccc(C#N)c2OCC[C@H]2CC[C@H](OC)[C@@H](CN(C)C(=O)[C@H]1C)O2
0.2	7	7	O=C(C[C@@H]1C[C@@H]2c3cc(NC(=O)c4ccc5c(c4)OCO5)ccc3O[C@@H]2[C@H](CO)O1)NCc1cccc(F)c1
4.5	5	0	CN(C)C(=O)[C@@H]1[C@@H](CO)[C@@H]2Cn3c(ccc(-c4ccccc4)c3=O)[C@@H]2N1C(=O)c1ccccn1
0.2	-4	-4	CC(C)NC(=O)Nc1cccc2c1O[C@H](CN(C)C(=O)Nc1ccccc1)[C@@H](C)CN([C@H](C)CO)C2=O
nt	?	nt	COc1ccc2c3c(n(C)c2c1)[C@@H](CO)N(C(=O)c1ccccc1)CC31CN(Cc2ccccc2OC)C1
-5.0	-3	2	CC(=O)N1[C@H](CO)[C@H](c2ccccc2)[C@H]1CNC(=O)c1ccncc1
-2.8	12	15	O=C(C[C@H]1C[C@@H]2c3cc(NC(=O)c4cccnc4)ccc3O[C@@H]2[C@@H](CO)O1)NCCN1CCCCC1
-1.0	-2	-1	COc1ccccc1CN1[C@@H]2CN(C(=O)C3CCOCC3)c3ccccc3[C@@H]2[C@@H]1CO

The list continues:
DUX4 inh control	DUX4 inh	DUX4 inh difference	SMILES
nt	?	nt	O=S(=O)(c1cccs1)N1CCCCN2[C@H](C1)[C@H](c1ccc(/C=C/c3ccccc3)cc1)[C@@H]2CO
nt	?	nt	COc1ccc(C#Cc2ccc([C@H]3[C@@H](CO)N4CCCCN(S(=O)(=O)c5ccccc5)C[C@H]34)cc2)cc1
-1.0	1	2	Cc1ccc(S(=O)(=O)Nc2ccc3c(c2)C(=O)N([C@H](C)CO)C[C@@H](C)[C@@H](CN(C)S(=O)(=O)c2cccs2)OCCCC[C@H](C)O3)cc1
2.9	5	2	COc1ccc(S(=O)(=O)N2C[C@@H](O)COC[C@@H]3O[C@H](CC(=O)N(C)C)CC[C@H]32)cc1
12	4	-8	O=C(c1ccc2c(c1)OCO2)N1CCCCN2[C@H](CO)[C@@H](c3ccc(-c4ccccc4)cc3)[C@H]2C1
2.5	3	0	CCN(C[C@@H]1[C@@H](c2ccccc2)[C@H](CO)N1C(C)=O)C(=O)c1ccccn1
11	12	1	O=C(C1CCOCC1)N1CC(=O)N2[C@H](CO)[C@@H](c3ccc(-c4cccnc4)cc3)[C@@H]2C1
-2.3	6	8	COc1ccc(CN2CC3(CCN(C(C)=O)CC3)c3c(n(C)c4cc(OC)ccc34)[C@H]2CO)cc1
1.2	-3	-4	N#C[C@@H]1[C@@H](c2ccc(C#Cc3cccnc3)cc2)[C@@H](CO)N1C(=O)C1CC1
-13	17	29	COc1ccccc1-c1ccc2c(c1)[C@H]1[C@H](CCN1S(=O)(=O)c1cn(C)cn1)[C@H](CO)N2
0.1	-10	-10	CO[C@H]1CN(C)C(=O)c2cc(NC(=O)Nc3ccccc3F)ccc2OC[C@@H](C)N(CCC(F)(F)F)C[C@@H]1C
6.2	-3	-9	CN(C)CC(=O)N1CC2(C1)[C@H](c1ccccc1)[C@@H](CO)N2C(=O)C1CCCC1
4.3	6	1	COc1ccc2c3c([nH]c2c1)[C@@H](CO)N(C(=O)CC1CC1)CC31CCN(C(=O)c2ccccc2)CC1
nt	?	nt	N#C[C@@H]1[C@H](c2ccccc2-c2ccccc2F)[C@H](CO)N1C(=O)Cc1ccccc1
-0.4	5	6	O=C(C[C@@H]1CC[C@H]2NC[C@H](O)COC[C@@H]2O1)N1CCc2ccccc2C1
nt	?	nt	O=C(Cc1ccccc1)N1CC[C@@H]2[C@@H](CO)Nc3ccc(-c4ccc(F)cc4)cc3[C@@H]21
1.5	2	1	Cc1ccc(S(=O)(=O)N2C[C@H](O)COC[C@H]3O[C@@H](CC(=O)NCCN4CCCCC4)CC[C@@H]32)cc1
6.3	2	-5	CCC(=O)N1[C@@H](CO)[C@@H](c2ccccc2)C12CN(C(=O)Nc1ccccc1F)C2
-1.1	-4	-3	CO[C@H](CN(C)C(=O)c1cnccn1)[C@H](C)CN([C@@H](C)CO)S(=O)(=O)c1ccc(C)cc1
3.0	-1	-4	Cc1noc(C)c1S(=O)(=O)N(C)C[C@H]1OCCCC[C@@H](C)Oc2ccc(NC(=O)c3ccccc3)cc2C(=O)N([C@@H](C)CO)C[C@@H]1C
-6.9	-2	5	CO[C@@H]1CC[C@@H]2CCN(C)C(=O)[C@H](C)[C@H](OC)CN(C)C(=O)c3cccc(C#N)c3OC[C@H]1O2
-0.1	12	12	COC(=O)N(C)C[C@@H]1OCc2ccccc2-c2c(n(C)c3ccccc23)C(=O)N([C@H](C)CO)C[C@@H]1C
0.7	-2	-3	Cc1ccccc1S(=O)(=O)Nc1ccc2c(c1)C(=O)N(C)[C@H]1CC[C@H](CC(=O)O)O[C@@H]1CO2
-3.6	1	5	CO[C@@H](CN(C)S(=O)(=O)c1ccc(C)cc1)[C@@H](C)CN(Cc1ccccc1Cl)[C@H](C)CO
-4.4&3.7	-9&13	-4&9	O=S(=O)(c1ccccc1F)N1[C@@H]2CNC[C@H]1C2c1ccc(-c2cccnc2)cc1 (stereo partly drawn)
-1.3	-5	-4	Cc1noc(C)c1NC(=O)N(C)C[C@H]1OCCCC[C@H](C)Oc2ccc(NS(=O)(=O)c3cn(C)cn3)cc2C(=O)N([C@@H](C)CO)C[C@H]1C
-2.3	-3	-1	CNC(=O)C[C@@H]1CC[C@H]2[C@H](COc3ccc(NS(=O)(=O)c4ccc(F)cc4)cc3C(=O)N2C)O1
